NPYLR7 agonist = mosquito NPYLR7 agonism. HEK293T NPYLR7/Galpha15, GCaMP6s calcium fluorescence. activation, % at 10 µM. 270,000 tested, 0.15% active. AID 1259423; in the data active = activation above about 40%;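 note: 0% = vehicle and 100% = reference agonist at the receptor; some compounds past the cut are filed as inactive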
NPYLR7 agonist max-min = further read-out of NPYLR7 agonist, marked with its call; activation, %; measured here: Max-Min RFU normalised activation; some inactives read as strong as hits;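 span of the calcium signal over five minutes; 0% = vehicle and 100% = native peptide agonist; compound fluorescence can raise it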
An asterisk follows results filed as active; & = joins results of further samples.

SMILES	NPYLR7 agonist	NPYLR7 agonist max-min
COc1cccc(C(=O)N(Cc2cccnc2)Cc2nccn2Cc2ccccc2C(F)(F)F)c1	13	26
Cc1ccc(Cc2nc(N3CCCN(C(=O)Nc4ccccc4C(F)(F)F)CC3)c3c(-c4cccnc4)noc3n2)cc1	13	3
Cc1c(Cl)cccc1N1CN(C(=O)CN(CC(C)C)C(=O)CCC2CCCC2)CC1=O	5	3
CS(=O)(=O)NCCOc1ccc(-c2ccc(F)cc2)nn1	-2	-4
CC(NCc1cn[nH]c1-c1ccc(-c2ccccc2)cc1)c1ccc(F)cc1 (stereo not drawn)	3	3
CC(=O)OC1CCC(C)(O)C2OC(CC1(C)O)C(C(C)C)C2OC(=O)/C=C/c1ccccc1 (stereo not drawn)	-11	-22
Cc1cc(C)c2oc(=O)n(C3CCN(C(=O)COCc4ccccc4)CC3)c2c1	16	10
Cc1cc(Sc2cc(C)nc3nc(C)nn23)n2nc(C)nc2n1	14	9
COC(=O)/C=C/CN1C(=O)c2ccccc2C1=O	2	-2
CC1CN(c2nc(N3CCOCC3)c3cnn(C)c3n2)CC(C)O1 (stereo not drawn)	2	0
N#CC1(NC(=O)CN(Cc2ccccc2O)C2CCCC2)CCCC1	8	6
CCOc1coc(C(=O)Nc2ccc(C)cc2)cc1=O	8	6
O=C(Nc1cccc(-c2ccco2)c1)C1CCN(C(=O)C2=CCCCC2)CC1	-6&2	-7&-4
COC(=O)C(C)(C)NS(=O)(=O)c1ccc(Cl)cc1C	-2	-8
COc1cc(OC)cc(-c2noc(Cn3ccn4nc(-c5ccccc5OC)cc4c3=O)n2)c1	-1	2
CCc1cccc2c(C(CC(=O)O)c3cccc(Oc4ccccc4)c3)cn(CC)c12 (stereo not drawn)	-1	2
C=C(C)CN(CC)C(=O)c1ccc(-c2ccc(OC)c(OC)c2OC)s1	-4	7
COc1ccc(Oc2ccc(C(F)(F)F)cn2)cc1CN1CCCC1	6	5
O=C(NCc1ccc(F)cc1)c1cc2n(n1)CCN(Cc1ccccc1C(F)(F)F)C2=O	19	12
Cc1nnc2c3c4c(sc3nc(C)n12)CCC4	1	4
Cc1noc(C)c1CCC(=O)NC1CC(=O)N(Cc2cccc(F)c2)C1 (stereo not drawn)	2	-2
CC1CCC(C(C)C)C(OCC(O)CN2CC(C)OC(C)C2)C1 (stereo not drawn)	0	86
COc1ccc(S(=O)(=O)Oc2cc(CN(C(=O)c3ccccc3Cl)C3CC3)ccc2OC)cc1	-2	3
CCc1ncc(C(=O)NCCC(=O)Nc2ccc(C)cc2C)cn1	-5	-13
N#Cc1ccc(C2CC(c3ccc(Br)cc3)=Nc3nc(C(F)(F)F)nn32)cc1 (stereo not drawn)	4	8

Three of the compounds above, as a markdown table.
| molecule | NPYLR7 agonist | NPYLR7 agonist max-min |
| --- | --- | --- |
| CC1CCC(C(C)C)C(OCC(O)CN2CC(C)OC(C)C2)C1 (stereo not drawn) | 0 | 86 |
| COc1ccc(S(=O)(=O)Oc2cc(CN(C(=O)c3ccccc3Cl)C3CC3)ccc2OC)cc1 | -2 | 3 |
| CCc1ncc(C(=O)NCCC(=O)Nc2ccc(C)cc2C)cn1 | -5 | -13 |

(further entries)
SMILES	NPYLR7 agonist	NPYLR7 agonist max-min
CN1CC2(CCCN(C(=O)C3(c4ccc(Cl)cc4)CCC3)CC2)OC1=O (stereo not drawn)	7	6
O=C(N[C@@H]1CCCCC1NC(=O)C1CCCN(C(=O)c2cccs2)C1)c1ccc(F)cc1 (stereo partly drawn)	-1	5
Cc1csc(CNC(=O)c2cn(-c3ccc(Br)cc3)cn2)n1	2	0
COC(=O)CSc1nc(N)c(C#N)c(-c2ccc(O)cc2)c1C#N	-4	-9
CCN(CC1CCCN(CCc2cccc(F)c2)C1)C(=O)c1ccncc1 (stereo not drawn)	6	4
N#CC(C#N)=NNc1ccc2c(c1)OCO2	7	6
Cc1cc(Oc2cc(N3CCN(C(=O)Cc4ccccc4)C(C)C3)ncn2)ccc1Cl (stereo not drawn)	8	12
COc1ccc(CCOc2nc(-c3ccc(Cl)c(Cl)c3)n(-c3ccc(NC(=O)c4cccs4)cc3)n2)cc1	4	3
COC(=O)Cc1cc(=O)n(-c2ccccc2)[nH]1	17	7
Fc1ccc(-c2nc3ccc(Br)cn3c2NC2CCCCC2)cc1	-7&0	-3&1
O=C(Nc1ccc(C2SCC(=O)N2c2ccccc2F)cc1)c1ccc(Cl)cc1 (stereo not drawn)	10	20
CC1=C(C(=O)OCCc2ccccc2)C(c2ccccc2[N+](=O)[O-])NC(=O)N1C (stereo not drawn)	-1	-4
CC(CO)(CO)N=Cc1c(O)n(-c2ccc(Cl)cc2)c(=O)[nH]c1=O	-7	-11
COc1ccc(CCNC(=O)N2CCC(n3cc(CN)nn3)CC2)cc1	6	-7
Cc1ccc(NC(=O)C2CCCCC2C(F)(F)F)nc1 (stereo not drawn)	7	5
Cc1ccccc1C1c2ccsc2CCN1C(=O)CN(C(C)C)S(=O)(=O)c1ccc([N+](=O)[O-])cc1 (stereo not drawn)	1	-8
CCCCCOc1ccc(C(=O)NCCNc2cccc3ccccc23)cc1OCCCCC	-11	-21
CC1CCC(NC(=O)N(CCCl)N=O)CC1 (stereo not drawn)	-18	-28
CN1C(=O)/C(=C2\SC(=S)N(NC(=O)c3cccnc3)C2=O)c2ccccc21	-3	-2
COc1ccccc1NC(=O)NCc1cccnc1N1CCN(C(C)=O)CC1	2	-2
Cn1c(=O)c2c(-c3cccc(F)c3)c(NCCc3ccccc3)oc2n(C)c1=O	5	3
Cc1cccc(-c2nc3c(N4CCN(C)CC4)nccc3[nH]2)c1	-4	-6
CN1C(=O)/C(=C\c2cccc(F)c2)SC1=S	-8	-3
Cn1c(=O)[nH]c(=O)c2c1nc(Br)n2Cc1ccccc1Cl	1	24
CCN(C(=O)c1cccc(NC(=O)c2ccc(=O)[nH]c2)c1)c1ccccc1	-9	-10
Next part
SMILES	NPYLR7 agonist	NPYLR7 agonist max-min
COc1cc2c(cc1OC)CN(Cc1cc3n(n1)CCCNC3)CC2	-3	-10
O=C(C1CCCCCC1)N1CCC(n2cc(-c3ccsc3)nn2)CC1	6	2
O=C(O)c1ccc2c(c1)COCO2	9	7
COc1ccc(NC(=O)c2c(C)c3c(n2Cc2ccc(F)c(F)c2)CCCC3)cc1OC	4	11
COc1ccc(/C=C2\C(=O)c3ccccc3S2(=O)=O)cc1	1	7
CCN(Cc1ccncc1)C(=O)C1CCC(=O)N(Cc2ccc(Cl)cc2)C1 (stereo not drawn)	21	7
O=C(CN1CCN(CC(F)(F)F)CC1)Nc1c(F)cccc1F	-3	-6
O=C(Cn1cncn1)N1CCc2c(cc(-c3ccccc3F)c(=O)n2Cc2ccncc2)C1	24	14
CCOC(=O)Cn1c(=O)c2c(nc3n2CC(C)CN3c2ccc(C)cc2)n(C)c1=O (stereo not drawn)	13	12
O=C(Cn1nc(-c2ccc(F)cc2)c2sc(N3CCCC3)nc2c1=O)Nc1ccccc1F	-4	-7
Cc1noc(C)c1CN(C)Cc1cc(=O)n2cc(Cl)ccc2n1	6	4
CC(NC(=O)C1CCC(C(=O)NC(C)c2ccccc2)CC1)c1ccccc1 (stereo not drawn)	2	1
COc1ccc(-n2c(SCCCCC(=O)N3CCN(C(=O)CC(C)CC(C)(C)C)C(C)C3)nnc2-c2ccco2)cc1 (stereo not drawn)	8	11
C#CCOCC(O)CN(Cc1ccc(F)cc1)Cc1ccc2c(c1)OCO2 (stereo not drawn)	9	22
CCOC(=O)C1=C(C)NC2=C(C(=O)CCC2)C1c1cccc(OC)c1 (stereo not drawn)	-4	-9
Cc1cccn2c(=O)c3cc(C#N)c(=NC(=O)c4ccco4)n(C(C)C)c3nc12	-2	5
CCc1cc(CN(C)Cc2ccc(-n3ccnc3)cc2)on1	19	8
COCCNC(=O)C(NC(=O)CC(C)C)C1CCN(S(=O)(=O)c2ccc(Cl)cc2)CC1 (stereo not drawn)	13	12
CC(NC(=S)NC1C2CCCC1CN(C1CC1)C2)c1ccccc1 (stereo not drawn)	-2	312
CCOC(=O)c1nn(-c2ccc(C)cc2)c(=O)c2c(NC(C)=O)scc12	4	1
CCN1CC(Cn2ccnc2-c2sc(N3CCCC3)nc2Cl)CC1=O (stereo not drawn)	20	12
CCOc1ccc(-c2nc(Cn3ccn4nc(-c5ccc(C)c(C)c5)cc4c3=O)c(C)o2)cc1OC	-2	-6
Cc1ccc(NC(=O)NCC(=O)Nc2ccc(F)cc2)cc1C	11	6
CC1=C(C(=O)OCC2CCCO2)C(c2ccc(Cl)cc2)NC(=O)N1 (stereo not drawn)	-1	-8
COCCN1C(=O)C(=Cc2c(N3CCOCC3)nc3c(C)cccn3c2=O)SC1=S	13	11
Other compounds
SMILES	NPYLR7 agonist	NPYLR7 agonist max-min
CC1(C(=O)Nc2cccc3cccnc23)CCN1C(=O)Cc1cc(F)ccc1F (stereo not drawn)	11	8
COc1cccc(/C=C2\SC(=S)NC2=O)c1O	4	1
Cc1ccc(C(=O)NCCn2nc(-c3ccco3)ccc2=O)cc1	1	-1
Cc1cc(OCCCn2cnc3ccccc3c2=O)c(C)cc1Br	-7	12
CC(NCc1ccc(C#N)cc1)c1ccc(N2CCN(C)CC2)cc1 (stereo not drawn)	-3	-4
Cn1cc(C(=O)Nc2cccc(-c3ccc4c(c3)CCO4)n2)ccc1=O	-6	-6
Cc1ccccc1-c1nc(S(=O)(=O)c2ccc(Cl)cc2)c(NCc2cccnc2)o1	3	1
CCOC(=O)c1ccc(NC(=O)CSc2nccn3nc(-c4ccc(CC)cc4)cc23)cc1	-4	-9
Cc1ccc2nc(SCC(=O)NCCC(C)C)n(C)c(=O)c2c1	0	10
Cc1ccccc1OCc1ccc(-c2nc(C#N)c(N(C)C)o2)o1	0	20
Cc1nn(CC(=O)Nc2sc3c(c2C(N)=O)CCC(C)C3)c(C)c1[N+](=O)[O-] (stereo not drawn)	-1	-6
Cc1c(Cl)cccc1NC(=S)N1CCC(O)CC1	-1	-3
c1coc(C2Nc3ccccc3-c3nc4ccccc4n32)c1 (stereo not drawn)	0	-1
CN1CCCC2(CCN(C(=O)c3ccc(-c4ccccc4)[nH]3)C2)C1=O (stereo not drawn)	3	-1
COCCNC(=O)c1ccc(OC2CCN(Cc3cccc4c3OCO4)CC2)c(Cl)c1	6	3
COC(=O)c1ccc(C(=O)NCC2(c3ccccc3OC)CCOCC2)cc1	-1	-4
Cc1nc(-n2nc(-c3ccco3)cc2NC(=O)CC(C)C)[nH]c(=O)c1C	-5	-7
N#Cc1ccc(COC(CN2CCN(C(=O)c3c(F)cccc3F)CC2)c2cccc(N3CCCC3)c2)cc1 (stereo not drawn)	5	2
COc1cccc(OC)c1C(=O)N(Cc1ccc(OS(C)(=O)=O)cc1)Cc1ccco1	25	22
COc1nc(-c2ccc(C(F)(F)F)cc2)n(-c2ccc(NC(=O)c3ccc(-c4ccccc4)cc3)cc2)n1	-1	2
CN(Cc1ccccc1)c1cc(C(C)(C)C)nc(SCc2cccc(C(=O)NCC3CCCO3)c2)n1 (stereo not drawn)	-4	-1
Cc1ccccc1N1CCN(C(=O)c2cc(-c3ccc(Cl)cc3)n(-c3ccccc3F)c2C)CC1	-1	8
c1csc(-c2noc(CN3CCCCC3CCn3cccn3)n2)c1 (stereo not drawn)	-2	-4
COC(=O)c1c(NC(=O)CC2SC(N)=NC2=O)sc2c1CCC(C(C)(C)C)C2 (stereo not drawn)	-9	-17
CC1CC(C)CN(C(=O)CN2C(=O)NC3(CCCCCC3)C2=O)C1 (stereo not drawn)	10	8

Looked up above.
Under NPYLR7 agonist max-min, c1coc(C2Nc3ccccc3-c3nc4ccccc4n32)c1 (stereo not drawn) has -1
Under NPYLR7 agonist, COc1cccc(OC)c1C(=O)N(Cc1ccc(OS(C)(=O)=O)cc1)Cc1ccco1 has 25
Under NPYLR7 agonist max-min, CC(NCc1ccc(C#N)cc1)c1ccc(N2CCN(C)CC2)cc1 (stereo not drawn) has -4
Under NPYLR7 agonist max-min, CCOC(=O)c1ccc(NC(=O)CSc2nccn3nc(-c4ccc(CC)cc4)cc23)cc1 has -9
Under NPYLR7 agonist max-min, Cc1c(Cl)cccc1NC(=S)N1CCC(O)CC1 has -3

Next section.
SMILES	NPYLR7 agonist	NPYLR7 agonist max-min
COC(=O)c1ccc(CN(CCN2CCOCC2)Cc2ccc(C)s2)o1	-2	8
COc1ccc(C(=O)N2CCCC2)c(OC2CCN(C(=O)CSC)CC2)c1	4	-2
CCc1[nH]n(-c2cccc(C)c2C)c(=O)c1C1=C([n+]2cccc(C)c2)C(=O)N(C2CCCCC2)C1=O	2	2
CC(C)C(=O)N1CC(=O)N2CC(C)c3ccccc3C2C1 (stereo not drawn)	-3	12
Cc1ccc(C(=O)Oc2cc(Cl)nnc2-c2ccccc2)cc1	2	7
CNC(=S)N1c2ccccc2CC1C (stereo not drawn)	-1	0
Cc1ccc(C(=O)N(Cc2ccco2)Cc2nccn2Cc2c(C)cc(C)cc2C)cc1	-2	6
O=C(NCCc1ccncc1)c1ccc(SC(F)(F)F)cc1	-6	-7
COCCNC(=O)C1(C)CCCN(Cc2c3ccccc3nn2C)C1 (stereo not drawn)	1	0
CC(C)CN=C1SCC(c2cccc(Cl)c2)=NN1C	11	5
Cc1ccc(S(=O)(=O)c2nnn3c2nc(N2CCCC2)c2sccc23)cc1	1	13
O=C1C=CC2C1C1C=CC2C12OCCO2 (stereo not drawn)	0	-5
CCOC(=O)C1=C(C)N=c2s/c(=C/c3cccc([N+](=O)[O-])c3)c(=O)n2C1c1cccs1 (stereo not drawn)	2	-2
Cc1cc(C)c2sc(N(CCCN(C)C)C(=O)CN3C(=O)c4ccccc4C3=O)nc2c1	1	-2

Exported with values under each structure: entries from further up
Second line of a record – NPYLR7 agonist | NPYLR7 agonist max-min
> CNC(=S)N1c2ccccc2CC1C (stereo not drawn)
→ -1 | 0
> Cc1ccc(C(=O)N(Cc2ccco2)Cc2nccn2Cc2c(C)cc(C)cc2C)cc1
→ -2 | 6
> O=C(NCCc1ccncc1)c1ccc(SC(F)(F)F)cc1
→ -6 | -7
> COCCNC(=O)C1(C)CCCN(Cc2c3ccccc3nn2C)C1 (stereo not drawn)
→ 1 | 0

Assay outcomes as filed in PubChem.

An excerpt, so the mix of outcomes need not match the whole.
